# RanGTP-Imp inh: inhibitors of RanGTP-importin-beta interaction, primary screen, biochemical, FRET, CFP-Ran, YFP-importin-beta, homogeneous; Ran GTPase (GTP-bound) - importin-beta complex; cell-free CFP-Ran/YFP-importin-beta FRET ratio; inhibition, % (no concentration beside the values); 300,000 tested, 1.1% active;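 active means most replicates above 15%; inconclusive means exactly half above 15%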;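 further: 0% = DMSO wells and 100% = Ran loaded with GDP instead of GTP; wells of about 40 µL received 100 nL stock; the first replicate is given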
# ALR H2O2 inh: inhibitors of human ALR sulfhydryl oxidase, primary screen, biochemical, H2O2 detection, HRP-luminol luminescence, single point; 290,000 tested, 3.8% active; inhibition, % (concentration not given with the values); purified ALR, DTT oxidation;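 active means mean and each replicate at 75% or more; inconclusive means only one of the two met; inactive means neither met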;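 further: stock transfer was 7.5 nL into about 7.5 µL; 0% = neutral wells and 100% = wells with inactivated enzyme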
# Target sequence (P55789 whole entry, looked up): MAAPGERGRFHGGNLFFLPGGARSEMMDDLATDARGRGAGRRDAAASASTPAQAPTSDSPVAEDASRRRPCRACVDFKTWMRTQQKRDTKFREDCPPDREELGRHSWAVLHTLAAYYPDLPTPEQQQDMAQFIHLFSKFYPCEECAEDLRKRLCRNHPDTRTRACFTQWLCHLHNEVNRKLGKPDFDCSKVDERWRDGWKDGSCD
# Beta2AR agonist: beta2AR agonists driving receptor internalization, primary screen, cell-based, FAP fluorogen, flow cytometry | Beta-2 adrenergic receptor (Homo sapiens), P07550 | Am2.2-beta2AR cells; reference of the scale not given here | response, % (test concentration not listed) | 340,000 tested, 0.43% active | AID 504454, 2011;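 active means response above a set limit, near 3 SD of response in nonfluorescent compounds, cut at about 42% in these data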;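 further: stock transfer was 100 nL into about 11 µL; a reference agonist was the positive control; negative values mostly stem from fluorescent compounds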
# Target sequence (P07550 whole entry, looked up): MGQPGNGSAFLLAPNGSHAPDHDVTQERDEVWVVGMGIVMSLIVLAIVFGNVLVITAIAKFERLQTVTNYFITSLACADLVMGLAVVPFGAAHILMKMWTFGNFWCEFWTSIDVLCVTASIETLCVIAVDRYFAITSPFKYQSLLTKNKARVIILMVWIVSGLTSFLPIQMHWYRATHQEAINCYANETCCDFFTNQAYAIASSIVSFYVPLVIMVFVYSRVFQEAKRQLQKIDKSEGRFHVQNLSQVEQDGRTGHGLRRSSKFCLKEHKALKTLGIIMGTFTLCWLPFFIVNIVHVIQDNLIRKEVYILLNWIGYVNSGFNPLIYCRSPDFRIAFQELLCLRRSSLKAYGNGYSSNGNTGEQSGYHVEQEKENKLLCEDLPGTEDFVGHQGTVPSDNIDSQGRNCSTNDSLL
# HNF4A DNA FP: change in binding of human HNF4A to DNA, primary screen, biochemical, fluorescence polarization, FITC-DNA; AID 1224865, 2016; activity change, % at 10 µM; 1 h; Hepatocyte nuclear factor 4-alpha (Homo sapiens), P41235; 360,000 tested, 0.3% active; in the data active means activity change above about 30%, passing the limit was not always enough;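 further: controls were the assay level and a saturating level of protein; the project sought stronger binding though the title names inhibitors; some compounds called inactive have numbers as strong as hits; positive values seem to mean higher polarization but the record does not say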
# Target sequence (P41235 whole entry, looked up): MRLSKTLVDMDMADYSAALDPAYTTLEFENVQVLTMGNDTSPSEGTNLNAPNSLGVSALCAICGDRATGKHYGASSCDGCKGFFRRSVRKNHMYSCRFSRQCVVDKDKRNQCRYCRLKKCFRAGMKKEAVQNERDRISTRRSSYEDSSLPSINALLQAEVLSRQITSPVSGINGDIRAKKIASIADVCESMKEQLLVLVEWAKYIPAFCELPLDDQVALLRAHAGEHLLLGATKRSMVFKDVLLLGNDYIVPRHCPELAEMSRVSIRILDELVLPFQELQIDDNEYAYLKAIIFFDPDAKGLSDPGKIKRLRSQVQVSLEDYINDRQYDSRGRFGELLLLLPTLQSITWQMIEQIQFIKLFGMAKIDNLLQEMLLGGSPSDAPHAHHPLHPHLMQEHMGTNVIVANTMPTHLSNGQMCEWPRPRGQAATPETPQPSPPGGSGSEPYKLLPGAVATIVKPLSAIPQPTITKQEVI
# LANA-H2A inh: blockers of LANA interaction with H2A/H2B – biochemical, FP readout, HTS, primary screen; Protein LANA1 (Human herpesvirus 8 type P (isolate GK18)), Q9QR71; cell-free LANA-H2A/H2B peptide, fluorescence polarization; inhibition, % (test concentration not listed); 320,000 tested, 0.6% active; AID 2629, 2010; in the data active means inhibition mostly above about 10%, no sharp cut-off; inactive means mostly below about 6.7%;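 further: stock transfer was 7.5 nL into about 10 µL; 0% = median of vehicle wells and 100% = median of positive control wells; one replicate is shown; the record names a cut of 25% in any replicate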
# Vif A3G: inhibitors of Vif binding to APOBEC3G peptide, primary screen, biochemical, TR-FRET, GST-Vif 1-94, biotin-A3G peptide, dose response retest (AID 1117319); one-dose inhibition, %; IC50 in µM for titrated hits; TR-FRET GST-Vif / biotin-A3G peptide binding; higher % means a stronger effect; test concentration not given here; strong numbers were not always called active; 260,000 tested, 0.57% active;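 active means above the screen mean plus three standard deviations and confirmed in dose response; inconclusive means results disagree or hit not tested in dose response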;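 further: Vif residues 1-94 fused to GST binding biotinylated APOBEC3G peptide 110-148; 0% = full assay without inhibitor and 100% = GST in place of GST-Vif; retest series ran down from 100 µM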
# Calb FLC: C. albicans growth inhibition with fluconazole, primary screen, CaCi-2 strain, Alamar Blue fluorescence. C. albicans CaCi-2 (fluconazole-resistant clinical isolate) + fluconazole, 48 h. growth inhibition, % (no concentration beside the values). 300,000 tested, 0.57% active;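 active means most replicates above 75%; inconclusive means exactly half above 75%; inactive means most below 75%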;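 further: all wells also contain fluconazole at 8 µg/ml as a sub-toxic cotreatment; 0% = median of DMSO wells and 100% = median of geldanamycin control wells; wells of about 8 µL received 7.5 nL stock; the first replicate is given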
# The depositor's hits bear a star; ? = inconclusive; / = no result given; & = joins results of further samples.
SMILES,RanGTP-Imp inh,ALR H2O2 inh,Beta2AR agonist,HNF4A DNA FP,LANA-H2A inh,Vif A3G,Calb FLC
CC1(C)CC(=O)C2=C(C1)N(Cc1ccc(F)cc1)C(=O)C2(NC(=O)c1cccnc1)C(F)(F)F (stereo not given),0.0,-2,-4,-1.8,0.9,67%,1
CC(C)(C)c1ccc(C(=O)NCCC(=O)NNC(=O)COc2ccccc2F)cc1,/,3,6,1.1,-0.6,-2%,/
O=C(Nc1c(C(=O)N2CCOCC2)cnn1-c1ccccc1)c1ccc([N+](=O)[O-])cc1,3.9,-74,5,4.5,1.3,4%,-6
O=C1CCN(Cc2ccccc2)CCN1[C@H](CSc1ccccc1)Cc1ccccc1,3.0,/,-3,3.3,-0.3,/,7
c1coc(CNc2nc3ccccc3n2CCN2CCOCC2)c1,1.3,29,-4,-3.6,-4.2,-3%,-2
NC1=NC2(CCCCC2)N=C(Nc2ccc(Br)cc2)N1,-0.7,/,-3,3.3,0.5,?,4
CN(CC(=O)Nc1ccccc1Cl)C(=O)COC(=O)C1CC1,-6.2,-4,-5,-0.8,3.3,-5%,2
COc1cccc(C2C(C(=O)c3cccs3)=C(O)C(=O)N2CCN(C)C)c1OC (stereo not given),0.6,/,-4,-2.4,1.1,-3%,-15
COc1cc(NC(=O)CCc2nnc3ccc(N4CCCCC4)nn23)cc(OC)c1OC,-5.9,12,-2,1.2,-2.1,/,32
COC(=O)c1ccc(CSc2nnc(Nc3ccc(OC)cc3)s2)o1,-0.2,8,-7,0.9,8.0,14%,-2
CCOC(=O)CNC(=O)Cn1cnc2c(nnn2-c2ccc(C)cc2)c1=O,-0.8,-1,-1,0.8,1.4,29%,-5
Cc1ccc(C)c(S(=O)(=O)N2CCCC2CNC(=O)C(=O)NC2CCCCCC2)c1 (stereo not given),-4.1,24,-5,2.8,-0.2,-2%,-2
CCc1ccccc1NC(=O)Cn1nnc(C(=O)NCc2cccs2)c1N,-3.9,31,2,0.8,-5.7,0%,-23
Cc1cccn2c(CNCCSc3nccn3C)c(C(=O)N3CCCCC3)nc12,5.3,5,1,-2.9,-5.5,/,-4
Cc1ccc(S(=O)(=O)N2CCC(C(=O)OCc3ccccc3)CC2)cc1C,6.2,-10,-5,0.2,-10.0,5%,0
CCc1ccc(NC(=O)Cn2nc(C)n3cccc3c2=O)cc1,-2.1,-6,0,-1.3,5.9,/,-4
O=C(c1ccc(COc2ccccc2Cl)o1)N1CCN(Cc2ccc3c(c2)OCO3)CC1,1.4&0.9,-1&-3,2&3,1.0&2.4,-1.9&-0.3,13%&2%,-3&-1
CC1=NN(C(=O)c2ccc(Br)cc2)C(O)(C(F)(F)OC(F)(F)F)C1 (stereo not given),3.0,/,10,-3.3,-4.2,19%,-4
COc1ccccc1C(=O)N/C(=C\c1cn(C)c2ccccc12)C(=O)NCCCN1CCOCC1,?,13,-6,5.5,-1.5,0%,-7
N#Cc1ccccc1COC(=O)c1ccc(Br)o1,-5.6,-1,1,-1.1,-0.8,/,-5
COc1cc(NC(=S)NCCSc2ccc(C)cc2)cc(OC)c1,3.9,5,-8,1.5,-1.6,1%,-5
CCOc1ccc(-n2cnc3scc(-c4ccc(OC)c(OC)c4)c3c2=O)cc1,3.0,-26,0,2.3,-3.2,1%,37
Cc1ccccc1C(=O)NC1CCN(C(=O)Nc2ccccc2Cl)CC1,-2.7,-15,0,0.3,-3.2,18%,-24
COc1cccc(/C=C/C(=O)OCC(=O)c2c(N)n(C)c(=O)n(C)c2=O)c1,/,4,3,-1.5,2.2,-1%,/
COc1cc(/C=N/NC(=O)c2c(-c3c(Cl)cccc3Cl)noc2C)ccc1OCC(N)=O,-1.5,/,12,-3.8,/,-1%,-12
COc1cc(C(=O)NCCCC2CCCC2)ccc1OC1CCN(C(C)=O)CC1,-0.3,/,-8,1.0,/,/,-2
Cn1cccc1CNC(=S)Nc1ccccc1F,4.3,-27,-2,0.2,-1.2,-4%,-2
O=C(NCCCN1CCCC1)Nc1ccc(F)cc1,-4.9,-16,11,-1.2,-0.8,-11%,-11
COc1ccccc1CNC(=O)N1CCN(S(=O)(=O)c2ccc(Cl)cc2)CC1,3.7,-4,-3,-1.8,-4.6,-3%,13
COc1cc(/C=N/NC(=O)CCC(=O)NCc2ccccc2)cc(OC)c1OC,-4.4,-4,4,7.3,5.2,?,-4
Cc1[nH]nc2c1C(=O)CC(C)(C)C2,-0.8,-16,1,0.2,-5.2,3%,3
CCn1c2ccccc2c2cc(/C=N/n3c(C)nnc3C)ccc21,0.0,-19,0,-3.6,-13,-1%,52
COc1cccc(C(=O)NCc2ccccc2OC)c1,1.1,-4,14,-0.1,0.3,2%,2
O=C(Nc1ccccc1)N(CCc1ccncc1)C1CCCCC1,0.8,-1,-32,-1.7,-3.7,/,-4
Cc1ccc(NS(=O)(=O)c2c(C)[nH]c(=O)[nH]c2=O)cc1F,?,-6,-9,-3.1,-1.3,-6%,3
CCN1CCN(C(=O)C(C)N(c2ccc(C)cc2)S(C)(=O)=O)CC1 (stereo not given),-0.6,-5,0,4.4,-1.2,-2%,-18
CC1CCCCC1NC(=O)COC(=O)c1ccc([N+](=O)[O-])o1 (stereo not given),/,/,-2,-2.9,/,5%,/
Cn1c(=O)[nH]c(=O)c2c1nc(N/N=C/c1ccncc1)n2Cc1ccc(Cl)cc1,-0.2,22,-15,4.7,3.0,10%,-2
O=C(CCCOc1ccc(Cl)cc1Cl)NCCCn1ccnc1,-0.1,/,-8,-0.1,-6.2,/,-9
Nc1ccc(Nc2ccc([N+](=O)[O-])cc2[N+](=O)[O-])cc1,6.3,98*,-14,-0.4,-3.5,-3%,2

# Reformatted: results already given.
# Under each structure – RanGTP-Imp inh | ALR H2O2 inh | Beta2AR agonist | HNF4A DNA FP | LANA-H2A inh | Vif A3G | Calb FLC
COc1cc(/C=N/NC(=O)c2c(-c3c(Cl)cccc3Cl)noc2C)ccc1OCC(N)=O
    -1.5 | / | 12 | -3.8 | / | -1% | -12
COc1cc(C(=O)NCCCC2CCCC2)ccc1OC1CCN(C(C)=O)CC1
    -0.3 | / | -8 | 1.0 | / | / | -2

# Other results.
SMILES,RanGTP-Imp inh,ALR H2O2 inh,Beta2AR agonist,HNF4A DNA FP,LANA-H2A inh,Vif A3G,Calb FLC
Cc1ccc(NC(=S)N(Cc2ccco2)C2CCN(C(C)C)CC2)cc1,-1.4,0,12,-1.8,1.2,-3%,0
Fc1ccc(CSc2nnc3ccccn23)c(Cl)c1,-2.5,-11,-5,0.2,1.7,2%,5
Cc1occc1C(=O)NNC(=S)NC(=O)COc1ccc(Cl)cc1Cl,0.8,15,2,-1.9,-3.8,/,-21
CS(=O)(=O)N(CC(=O)N1CCCCCC1)c1ccc2c(c1)OCCO2,-3.1,-1,5,2.4,-2.1,0%,-25
O=C(Nc1cccnc1)c1cccc(-c2cc3ccccc3oc2=O)c1,1.1,-3,28,8.8,1.4,/,3
Cc1cc(=O)c(C(=O)O)nn1-c1ccc(Cl)cc1,6.9,-2,-1,3.4,-2.2,10%,2
Cc1cc(=O)oc2cc(OCc3ccc(C(=O)N4CCN(c5ccccc5)CC4)cc3)ccc12,-4.5,-2,3,-1.0,-1.2,4%,-8
COc1ccc(Cn2c(=S)[nH]c3ccccc32)cc1,1.3,18,-6,3.1,1.0,-6%,-2
O=C(c1ccc(Cl)cc1)N1CCN(c2ccc(F)cc2)CC1,2.6,15,8,-1.4,-2.1,19%,-13
O=C(Nc1ccc(F)cc1)C1CCCN(S(=O)(=O)c2cccc3nonc23)C1 (stereo not given),-0.2,/,-4,1.0,-2.2,-7%,4
COC(=O)C1CC(=O)c2ccsc2C1 (stereo not given),0.3,1,1,-2.6,-1.8,/,4
CC(C(=O)Nc1ccccc1Br)N1c2cccc3cccc(c23)S1(=O)=O (stereo not given),-2.3,1,-8,-3.1,-4.8,2%,4
O=C(CNC(=O)c1ccc(Cl)cc1Cl)NCC1CCCO1 (stereo not given),-1.6,12,-3,-2.0,0.0,/,4
CCC1Oc2ccc(C)cc2N(CC(=O)NCCCN2CCCCC2CC)C1=O (stereo not given),-1.5,-3,8,0.1,-0.8,-2%&-2%,-19
Cc1nc(NC(=O)/C=C/c2ccccc2)sc1C(=O)N(C)C,-1.4,-2,0,-2.0,5.1,17%,0
COCCOC(=O)C1=C(C)NC2(O)c3ccccc3C(=O)C12O (stereo not given),-1.0,-43,-3,3.0,5.5,-12%,-1
CCOc1nc(S(=O)(=O)c2ccc(C)cc2)c(Cl)s1,-1.6,-8,-5,-2.4,-4.2,4%,-5
Cc1ccc(C(=O)C(C)OC(=O)c2cc3cc([N+](=O)[O-])ccc3oc2=O)cc1 (stereo not given),-3.6,-2,7,-2.3,0.5,1%,-2
CCC[C@@H]1C[C@@]1(CCC)[C@@H](NP(=O)(c1ccccc1)c1ccccc1)c1ccc(C(=O)OC)cc1,1.0,-2,/,/,1.4,18%,17
O=C(Nc1cccc(C(F)(F)F)c1)c1cc2c(s1)-c1ccccc1OC2,41*,-7,3,-1.5,-7.1,-16%,28
CCNc1nc(OC)nc(SCC(=O)Nc2ccccc2)n1,?,-6,-4,-1.8,-1.3,2%,-1
COc1ccc2sc3c(=O)[nH]c4ccccc4c3c2c1,7.4,8,19,0.6,-0.1,-3%,19
Cc1cccc(C)c1NC(=O)C1CCN(C(=O)c2cccs2)CC1,0.8,/,2,2.1,-11,/,-4
Cc1nn(-c2ccccc2)c(C)c1/C=C/C(=O)OC(C)C(=O)Nc1ncc(Cl)cc1Cl (stereo not given),1.1,-23,-10,0.5,3.1,1%,-6
O=C1OC(c2ccc(Cl)cc2)=N/C1=C\c1cccnc1,0.9,1,2,0.8,1.3,7%,6
CCOC(=O)C1CCCN(C(=O)CSCc2ccccc2)C1 (stereo not given),-3.7,1,4,1.8,-0.7,11%,-3
CC1CCCCC1NC(=O)C1CC(=O)N(Cc2ccccc2)C1 (stereo not given),-1.2,3,-2,1.8,-8.4,/,-4
CC(O)CO (stereo not given),/,-1,-1,-2.7,-448,/,/
Cc1ccc(S(=O)(=O)N2CCOCC2)cc1NC(=O)COC(=O)Cc1ccc(Cl)cc1,/,/,10,-1.6,-1.0,/,/
C=CC[C@@H](CC(=O)NCCO)C(=O)NC[C@@H](OC(=O)[C@H](CC=C)CC(=O)OC(C)(C)C)c1ccccc1,/,6,-2,-2.4,4.4,/,/
NS(=O)(=O)c1ccc(CCNC(=O)COC(=O)/C=C/c2ccc(Cl)cc2)cc1,-0.4,5,-9,-1.8,-6.1,-4%,-10
CC(C)n1nc(C(=O)NCCc2ccc(S(N)(=O)=O)cc2)c2ccccc2c1=O,-1.7,6,0,0.0,2.4,0%,2
COc1ccc(NC(=O)Cn2nnc(C(=O)NCc3ccco3)c2N)cc1,5.3,-6,2,-3.1,1.1,/,-11
COc1ccc(CSCCc2n[nH]c(=S)n2-c2ccccc2)cc1,2.6,22,0,0.5,5.1,6%,4
CC(=O)NNc1ncnc2ccccc12,2.0,4,-1,0.6,-6.9,16%,-18
COc1cccc(-c2csc(NC(=O)Nc3ccccc3)n2)c1,-1.4,/,0,-0.6,2.3,/,-20
CCOc1ccc(/C=C/C(=O)c2c(O)c3ccccc3oc2=O)cc1,2.7,3,-8,2.6,-2.5,7%,56
Cn1c(CNc2ccccn2)c(C#N)c2ccccc21,?,0,-11,0.9,-5.3,-2%&-37%,-6
CC(C)(CO)NCc1cc(Br)ccc1OCc1ccccc1,-1.1,0,-3,5.0,0.8,-5%,2
O=C(COC(=O)Cc1c(F)cccc1Cl)NNC(=O)c1ccccc1,/,/,11,1.6,0.0,/,/
